D2 ag: human D2 receptor agonism in beta-arrestin assay | P14416 | DiscoveRx PathHunter D2 beta-arrestin, luminescence, 90 min; 100% = 57 uM dopamine signal | activation, % (test concentration not listed) | 360,000 tested, 0.084% active; in the data active = activation above about 40%; inconclusive = about 15% to 40%; inactive = below about 15%; also: compound concentration not given in the record; the text of the record calls up to 30% inactive
Target sequence (P14416 whole entry, looked up): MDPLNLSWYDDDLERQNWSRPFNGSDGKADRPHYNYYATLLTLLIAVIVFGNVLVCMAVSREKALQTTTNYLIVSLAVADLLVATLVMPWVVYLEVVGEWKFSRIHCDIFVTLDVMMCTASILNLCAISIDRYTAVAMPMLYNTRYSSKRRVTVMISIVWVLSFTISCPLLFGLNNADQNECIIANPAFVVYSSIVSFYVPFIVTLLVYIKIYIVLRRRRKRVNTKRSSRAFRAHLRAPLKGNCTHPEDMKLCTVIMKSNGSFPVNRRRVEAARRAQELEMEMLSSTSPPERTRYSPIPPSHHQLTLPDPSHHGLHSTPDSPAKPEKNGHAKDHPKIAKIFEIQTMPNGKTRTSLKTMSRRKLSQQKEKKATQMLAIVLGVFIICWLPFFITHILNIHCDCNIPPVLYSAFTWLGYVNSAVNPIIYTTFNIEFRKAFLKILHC
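DiscoveRx PathHunter D2 beta-arrestin cells (2,100/well) attached overnight, then compound-stimulated 90 min at 37 C in HBSS/10 mM HEPES/0.1% Tween-20 buffer; beta-galactosidase complementation read by luminescence after 1 h at ambient temperature. Dopamine 57 uM final (EC100) as control.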
PINK1 modulator: changes PINK1 expression; PINK1 immunofluorescence, high-content cytometry, 24 h; Potency, µM (top dose mostly 76.6 µM), without a hit: top-dose activation (PINK1 increase), hits mostly activators; 410,000 tested, 0.2% active; AID 624263; active = well fitted activation curve with a large enough effect; inconclusive = small, poorly fitted or top-dose-only effect; inactive = flat fitted curve, though single readings scatter; cell line not stated here;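 also: potency is read from the fitted curve at half-maximal effect; % of control where 0% means no effect; nearly all actives have a fitted effect of over 65% in size; a mitochondrial uncoupler was the plate control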
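Measures PINK1 amount and localization on or inside mitochondria by immunofluorescence. Stable cells get compounds at 5 concentrations for 24 hours before fixation and staining; CCCP controls included.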
TRPV1 PAM: enhances activation of the human vanilloid receptor TRPV1; Q8NER1; TRPV1-expressing cells, Fluo-8 calcium influx, capsaicin EC20 potentiation; host cell line not named in the record; control for the full effect not named in the record; potentiation, % at 8.33 µM; 320,000 tested, 0.02% active; AID 540277; active means potentiation above 80%; inconclusive means 30% to 80%; inactive means below 30%; also: 0% is about no effect
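Fluo-8 calcium influx in TRPV1-expressing cells, kinetic read (ex 480/em 520 nm). Compound added and read 3 min for agonist activity, followed by capsaicin at EC20 final and 2 min further read for enhancement.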
D2 PAM: human D2 receptor positive allosteric modulation | DiscoveRx D2 beta-arrestin cells, luminescence, 90 min; 100% = 57 uM dopamine signal | potentiation, % (concentration not given with the values) | 360,000 tested, 0.23% active; active = potentiation of 50% or more; inconclusive = 30% to 50%; inactive = 30% or less;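 also: compound concentration not given in the record; tested on top of an EC20 dose of dopamine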
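D2 cells co-treated with compound plus 50 nM dopamine (EC20) for 90 min at 37 deg C to detect potentiation. Beta-arrestin recruitment was read as enzyme-fragment luminescence after 1 h at ambient temperature. Full response was set by 57 uM dopamine.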
Sfp inh: Sfp phosphopantetheinyl transferase inhibition | Biochemical Sfp PPTase activity, qHTS | Potency, µM, without a hit: max response, negative = inhibition, hits mostly inhibitors | AID 1490 | 310,000 tested, 3.5% active; active = well fitted inhibition curve with a large enough effect; inconclusive = small, poorly fitted or top-dose-only effect, or another doubt; inactive = no such curve, though single readings can be large or run the other way;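 also: the enzyme is Sfp with the accession as filed and its product quenches rhodamine fluorescence; potency is read from the fitted curve at half-maximal effect; 0% = enzyme reaction without inhibitor and -100% = no enzyme wells; top concentration of the series not given in the record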
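Buffer: 50 mM Hepes-Na pH 7.6, 10 mM MgCl2, 0.01% Nonidet P-40, 0.01% BSA. Enzyme 15 nM, pre-exposed to compound 15 min; substrates then added and fluorescence change tracked over 30 min.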
CtBP-E1A blk: blocks the CtBP interaction with E1A. AlphaScreen GST-E1A/His-CtBP binding, 1536-well; hits give low values; control for the full effect not named in the record. activity change, % (test concentration not listed). 340,000 tested, 0.49% active. AID 651724; in the data active means activity change below about -65%; inconclusive means about -30% to -65%; inactive means above about -30%; also: % is scaled to controls: 0 for no effect and ±100 for the full control effect; compound concentration not given in the record
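Protein mix (5X: 125 nM each GST-E1A, His-CtBP) was incubated with pinned compound 2 h at 37 deg C in dark, in 50 mM Tris pH 8.0 buffer with 300 mM NaCl. Glutathione donor and nickel acceptor beads followed; AlphaScreen signal read after 1 h.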
Six1-Eya2 blk: inhibitors of human Six1/Eya2 interaction | Q15475+O00167 | AlphaScreen GST-Six1/His-Eya2 binding, biochemical; hits give low values; control for the full effect not named in the record | activity change, % (test concentration not listed) | 360,000 tested, 0.56% active; in the data active = activity change below about -65%; inconclusive = about -30% to -65%; inactive = above about -30%; also: % is scaled to controls: 0 for no effect and ±100 for the full control effect; compound concentration not given in the record
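AlphaScreen luminescence read after one hour at 37 °C in darkness. Pin-transferred compounds met GST-Six1 and His-Eya2 protein (5X stock 250 nM/500 nM) plus glutathione donor and Ni-chelate acceptor beads (5X, 50 ug/mL).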
* hit, by the source's call; ? = inconclusive; nt = no result given; [ ] = remark or other dose.

Results follow in this order: CtBP-E1A blk, D2 ag, Sfp inh, D2 PAM, Six1-Eya2 blk, TRPV1 PAM, PINK1 modulator
> COCCN1C[C@@H](CO)O[C@@H](n2cnc3c(NCc4cc(OC)c(OC)c(OC)c4)ncnc32)C1
  2, -4.2, nt, -1, 1, nt, 0.3%
> COc1ccccc1C(=O)C1CCCN(C(=O)c2ccco2)C1 (stereo not drawn)
  nt, -0.1, 12%, -7, 0, -5, 0.5%
> COP(=O)(CC(=O)c1ccccc1)CC(=O)c1ccccc1
  -3, 0.0, 0%, -2, -3, 8, 0.5%
> CCOC(=O)C1(Cc2ccc(Cl)cc2)CCN(C2CCC2)CC1
  1, 0.3, 18%, -21, 0, 7, -0.1%
> CCCCCc1cc(=O)oc2c(C(CCN3CCCC3)c3cc(OC)c(OC)c(OC)c3)c(OC)cc(OC)c12 (stereo not drawn)
  -6, 4.7, ?, -21, -8, -6, 1.3%
> O=C(CN1CCc2ccccc21)NN1CC(=O)N(c2ccc(Cl)cc2)CC1=O
  1, 1.5, 9%, -7, -15, -9, 0.0%
> COC(=O)c1c(NC(=O)CSc2nc3nc(C)cc(C)n3n2)sc(C)c1C
  0, 1.0, -2%, -6, -6, 6, -1.4%
> COc1cc(NC(=O)c2ccc(F)cc2)ccc1NC(=O)c1cc2ccccc2o1
  12, -0.6, -13%, -3, 6, 22, -0.1%
> COc1ccccc1C(=O)NCCC(=O)NC1=NCCS1
  nt, 0.0, nt, -2, 0, 16, 1.8%
> Cc1ccc(CNc2ccc(N3C(=O)CCCC3=O)cc2[N+](=O)[O-])cc1
  -4, -2.1, 1%, 6, 2, -1, 1.4%
> CCOC(=O)C1=C(C)N(c2ccccc2)C(=O)C1
  1, -1.6, 7%, 7, -8, 6, 11%[38.3 µM]
> c1cncc(-c2nc(-c3ccc4c(c3)OCO4)cs2)c1
  -19, -1.2, 6%, 1, -11, 26, 3.2%
> CN(C)S(=O)(=O)N1CCC(n2nccc2NC(=O)CCc2ccccc2)CC1
  5, -6.8, 10%, 10, 7, 9, 0.1%
> CCOC(=O)c1cc(-c2ccc(C)cc2)n(CCC(=O)NCCCOC)c1C
  -4, -1.8, 18%, 5, -6, -8, -2.8%
> Cn1cc(SCC(=O)NCCc2ccccc2)c2ccccc21
  nt, -1.5, 9%, 9, -2, -17, 2.8%
> CCOc1ccc(-n2nc3c(Cl)nnc(C)c3c2C)cc1
  0, -3.0, -1%, 4, 0, -5, -2.2%
> O=C(CCCOc1ccc(Br)cc1)Nc1nnc(C2CC2)s1
  1, 0.2, nt, 1, 0, 3, 4.6%
> CCOCc1c(C(=O)Nc2ccccc2N2CCN(C)CC2)oc2ccccc12
  -19, -1.7, nt, -15, -8, -10, 11%
> CCOC(=O)C(C)N1C(=O)S/C(=C/c2ccc3c(c2)n(C)c(=O)n3C)C1=O (stereo not drawn)
  nt, 4.8, -3%, -6, 2, 17, 3.7%
> FC(F)(F)c1ccccc1NC(=S)Nc1ccccc1
  0, -0.6, -24%, -1, 3, 9, -0.2%
> O=C(OCCOCCOC(=O)Oc1ccccc1)Oc1ccccc1
  16, 0.9, nt, 9, 11, nt, 3.4%
> Nc1nc(CN2CCN(c3cccc(Cl)c3)CC2)nc(N2CCCc3ccccc32)n1
  -10, ?, 5%, 29, ?, 3, -1.1%
> CC(C)CC1C(=O)N(Cc2cn(CCC3OCCCO3)nn2)CCS(=O)(=O)N1Cc1ccc(-c2cccc(N(C)C)c2)cc1 (stereo not drawn)
  6, 1.6, nt, 6, 11, nt, -0.9%
> N#Cc1cc(-c2ccccc2)nc(NN)n1
  -3, -8.9, 2%, -17, -9, -3, 1.4%
> COc1ccc(C)cc1S(=O)(=O)NCC(c1cccnc1)N1CCc2ccccc2C1 (stereo not drawn)
  -18, 2.0, -15%, -17, -6, -23, 2.6%
> CCn1c(SCC(=O)OC)nnc1C1CCCCC1
  2, -3.8, 24%, 5, 5, 5, -1.2%
> COC(=O)/C=C1\N/C(=N\c2nc(C)cc(C)n2)N(c2ccccc2)C1=O
  3, -5.6, -20%, -1, -13, -3, -0.4%
> O=C(c1cc(-c2ccccc2)on1)N1CCN(Cc2ccc3c(c2)OCO3)CC1
  -4, 0.0, -14%, -16, -14, -1, -3.7%[38.3 µM]
> CC(=O)c1ccc(NC(=O)CCCN2C(=O)C(c3ccccc3)Oc3cccnc32)cc1 (stereo not drawn)
  -2, 3.0, 5%, 1, -3, -12, -0.5%
> CC1(C)CC(=O)C=C(Nc2ccc(Br)cn2)C1
  20, -2.3, -13%, -23, 5, 29, 4.6%[38.3 µM]

The list goes on, starting with the last four of the part before.
Results follow in this order: CtBP-E1A blk, D2 ag, Sfp inh, D2 PAM, Six1-Eya2 blk, TRPV1 PAM, PINK1 modulator
> COC(=O)/C=C1\N/C(=N\c2nc(C)cc(C)n2)N(c2ccccc2)C1=O
  3, -5.6, -20%, -1, -13, -3, -0.4%
> O=C(c1cc(-c2ccccc2)on1)N1CCN(Cc2ccc3c(c2)OCO3)CC1
  -4, 0.0, -14%, -16, -14, -1, -3.7%[38.3 µM]
> CC(=O)c1ccc(NC(=O)CCCN2C(=O)C(c3ccccc3)Oc3cccnc32)cc1 (stereo not drawn)
  -2, 3.0, 5%, 1, -3, -12, -0.5%
> CC1(C)CC(=O)C=C(Nc2ccc(Br)cn2)C1
  20, -2.3, -13%, -23, 5, 29, 4.6%[38.3 µM]
> Nc1ccc(S(=O)(=O)NC2=NCCCCC2)cc1N
  -6, -3.2, 18%, -9, ?, 1, 0.9%
> C/C(=N\NC(=S)NCc1ccccc1)c1ccc2c(c1)OCCO2
  nt, -7.2, ?, -7, -8, 14, 4.5%
> COc1ccc(/C=C/c2cc[n+](C(=O)Cc3ccccc3)cc2)cc1
  3, 1.0, 2%, -8, 0, ?, ?
> Cc1c(/C=N/N=C2\CCC3C4CCc5cc(O)ccc5C4CCC23C)cnn1C (stereo not drawn)
  1, 1.4, 9%, -3, 1, -1, 8.7%
> COc1ccc(O)c(C(=O)c2cc(C#N)c(=O)n(CCN3CCOCC3)c2)c1
  4, -2.6, 19%, -10, 0, 1, 1.5%
> Cc1ccccc1N1CC(C(=O)Nc2ccc(S(=O)(=O)N3CCCCC3)cc2)CC1=O (stereo not drawn)
  1, 0.7, -12%, 0, -2, 7, 3.1%
> COc1ccc(-c2nnc(SCC(=O)c3cccs3)n2-c2ccc(Cl)cc2)cc1
  -2, -0.9, -13%, -29, -18, -6, 1.5%
> CCc1nnc(NC(=O)c2ccc3nc(CC)c(CC)nc3c2)s1
  -3, -5.1, 11%, -3, 1, 7, 2.5%
> COc1ccc(C2(CNC(C)=O)CCCC2)cc1OC
  7, -1.6, 8%, -8, -1, 4, 2.0%
> COC(=O)c1c(C)[nH]c(C(=O)/C=C/c2cccc(Cl)c2)c1C
  3, 3.0, -1%, -15, 0, 3, 14%
> CC(C)C[C@H]1CN=C(Nc2ccccc2)N1CC1CCC1
  4, -2.0, 17%, -9, 4, -10, -0.7%
> O=C(COC(=O)/C=C/c1ccc(Cl)cc1Cl)NCC1CCCO1 (stereo not drawn)
  ?, 5.2, nt, 0, -3, nt, 1.1%
> CCC1(CC)NC(=O)N(CC(=O)N2CCc3ccccc32)C1=O
  16, -2.1, nt, -10, 7, nt, 0.1%
> O=C(Cn1nc(Cc2cccnc2)c2ccccc2c1=O)NCc1ccc2c(c1)OCO2
  0, -0.2, -6%, -3, -7, 17, -0.8%
> O=C(CCC1COc2ccccc2O1)Nc1ncccc1O (stereo not drawn)
  -11, -1.3, 13%, 7, ?, 6, -1.5%
> Cc1ccccc1CN(C)CC(=O)Nc1ccccc1-c1ccccc1
  -4, -4.1, 4%, 4, 5, -7, ?
> Cc1[nH]c(=O)[nH]c(=O)c1/C=N/NC(=O)[C@@H](NC(=O)OC(C)(C)C)C(C)C
  -25, -0.9, 9%, -1, -13, 6, -1.3%
> Nc1ncnc2c1ncn2[C@@H]1O[C@H](CNC(=O)[C@@H]2C[C@H](F)CN2)[C@@H](O)[C@H]1O
  8, -0.5, nt, 0, 7, nt, 2.1%
> CCCc1c(-c2cccc(Cl)c2)ncn1CCc1ccccc1OC
  3, nt, nt, nt, -17, nt, 6.4%
> COC(=O)c1c(NC(=O)C(Cl)Cl)sc2c1C(C(=O)OC)CC2 (stereo not drawn)
  nt, 2.6, -18%, -32, -8, nt, 1.1%
> COc1ccc(CCC(C)N2CCc3ccccc3C2)cc1 (stereo not drawn)
  nt, -3.8, -3%, -69, -2, ?, 7.6%
> N#CCSc1nnc(-c2sc3ccccc3c2Cl)o1
  -2, -0.3, 0%, 0, -7, 0, 8.9%
> Cc1ccc(-c2ccnc3[nH]n(-c4ccccc4)c(=O)c23)cc1
  nt, -4.9, 10%, -7, -1, -4, -0.3%
> COc1ccc(CCNCC(=O)Nc2ccc(OC(F)(F)F)cc2)cc1OC
  -12, -4.0, -11%, -2, 1, -7, 12%
> CCOc1ccc(C2=NNC(c3cccs3)=Nc3ccc(OC)cc32)cc1OCC
  -5, -2.8, 6%, -7, -13, 5, -1.2%
> CCC(C)N(C(=O)CSc1nnc2ccccn12)C1CCS(=O)(=O)C1 (stereo not drawn)
  7, -3.8, nt, -15, 2, -5, -4.3%
> Cc1cc(N2CCOCC2)n2nc(-c3cccc(F)c3)cc2n1
  8, -3.5, -9%, -4, 0, -8, 20%[38.3 µM]
> O=C(c1cccc([N+](=O)[O-])c1)c1cc2ccccc2o1
  5, -4.2, -7%, -6, -7, 10, 2.5%
> CCC(Nc1nc(-c2ccccc2)nc2ccccc12)C(=O)O (stereo not drawn)
  7, -0.4, 20%, -9, 3, ?, -3.6%[38.3 µM]
> CCc1ccc2nc(N)sc2c1
  -26, -6.0, 13%, -4, -13, 0, 3.7%
> Cc1c(Cl)cccc1NC(=S)NC1CC1
  11, 0.1, -9%, 26, -6, -1, -0.7%

Three entries out of the list, sorted by molecular weight, high to low:
Results follow in this order: CtBP-E1A blk, D2 ag, Sfp inh, D2 PAM, Six1-Eya2 blk, TRPV1 PAM, PINK1 modulator
> COc1ccc(CCNCC(=O)Nc2ccc(OC(F)(F)F)cc2)cc1OC
  -12, -4.0, -11%, -2, 1, -7, 12%
> Nc1ncnc2c1ncn2[C@@H]1O[C@H](CNC(=O)[C@@H]2C[C@H](F)CN2)[C@@H](O)[C@H]1O
  8, -0.5, nt, 0, 7, nt, 2.1%
> CCc1ccc2nc(N)sc2c1
  -26, -6.0, 13%, -4, -13, 0, 3.7%
